High-throughput results as filed in PubChem BioAssay.
Vaccinia stage: blocks a specific stage of Vaccinia orthopoxvirus infection, primary screen, cell-based, single point; Vaccinia-infected cells, mCherry/Venus stage reporter fluorescence; stronger effect = lower value; some inactives read as strong as hits; activity change (mCherry), % (no concentration beside the values); actives 0.01% (n = 89,000); AID 1053133, 2014;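 active = mCherry past -33% and 40 or more points under the early reporter, replicates agreeing; inconclusive = past -33% without that gap or agreement; tested in A549 cells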;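 note: scaled between vehicle wells and reference inhibitor wells; 23 nL library stock went into each well; one replicate is shown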
Vaccinia stage Venus: also measured in Vaccinia stage; calls as there; activity change (Venus), %; measured here: Venus reporter, other viral stage;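 negative = less Venus signal; first of two replicates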
* marks the source's active call; other numbers are inactive results; ? = inconclusive; . = not tested or not shown. These rows are one share of the data. The share of hits here may be higher or lower than overall.

Every second line gives: Vaccinia stage	Vaccinia stage Venus
CCCC[C@H]1OB(O)C[C@H]2C1=C(COc1ccccc1)C[C@H]1C(=O)N(Cc3ccccc3)C(=O)[C@H]12
  -13	2
C[C@@H]1CCCCO[C@H](CN(C)CC2CCCCC2)[C@H](C)CN([C@@H](C)CO)C(=O)c2cc(NC(=O)c3ccncc3)ccc2O1
  -14	-25
C[C@H]1CN([C@@H](C)CO)C(=O)c2cc(-c3ccc(C#N)cc3)cnc2O[C@@H]1CN(C)C(=O)c1ccccc1
  -3	3
COc1cccc(-c2cn(CC[C@H]3CC[C@@H](NC(=O)CN(C)C)[C@H](CO)O3)nn2)c1
  6	9
Cc1ccc(S(=O)(=O)N(C)C[C@@H]2OCCCC[C@@H](C)Oc3ccc(NC(=O)Nc4cccc5ccccc45)cc3C(=O)N([C@@H](C)CO)C[C@@H]2C)cc1
  28	21
CO[C@H](CN(C)S(=O)(=O)c1cn(C)cn1)[C@@H](C)CN(C(=O)Nc1ccc(C(F)(F)F)cc1)[C@@H](C)CO
  11	11
CN1CCN(C(=O)c2cc3c(c(-c4cccc(C#CCC5CCCC5)c4)n2)[C@H](CCO)N(S(=O)C(C)(C)C)C3)CC1 (stereo partly specified)
  ?	.
CN(C)CC#Cc1ccc([C@@H]2[C@H](CO)N3C(=O)CN(C(=O)c4ccccc4)C[C@@H]23)cc1
  4	0
C[C@H](CO)N1C[C@H](C)[C@H](CN(C)Cc2ccncc2)Oc2ccc(NS(=O)(=O)c3cn(C)cn3)cc2C1=O
  14	7
CO[C@@H]1CN(C)C(=O)c2cc(NC(=O)c3cc(C)on3)ccc2OC[C@@H](C)N(C)C[C@@H]1C
  0	10
C[C@H]1CCCCO[C@H](CN(C)S(=O)(=O)c2ccccc2)[C@@H](C)CN([C@@H](C)CO)C(=O)c2cc(NC(=O)CCCN(C)C)ccc2O1
  3	-6
COc1ccccc1S(=O)(=O)N[C@H]1CC[C@H](CC(=O)N2CCCCC2)O[C@@H]1CO
  0	10
CCCC#Cc1cnc2c(c1)C(=O)N([C@H](C)CO)C[C@@H](C)[C@@H](CN(C)C(=O)Cc1cccnc1)O2
  16	15
C[C@H](CO)N1C[C@H](C)[C@@H](CN(C)C(=O)Nc2ccc(F)cc2)Oc2ccc(NC(=O)Nc3ccc(F)cc3)cc2C1=O
  1	-5
O=C(NCC1CC1)[C@@H]1[C@@H](CO)[C@@H]2Cn3c(ccc(-c4ccccc4)c3=O)[C@@H]2N1CC1CC1
  -3	4
C[C@H](CO)N1C[C@H](C)[C@@H](CN(C)S(=O)(=O)c2cccs2)Oc2c(NS(=O)(=O)c3ccccc3)cccc2C1=O
  16	9
C[C@H](CO)N1C[C@H](C)[C@H](CN(C)Cc2ccc(C(=O)O)cc2)Oc2ncc(-c3ccc(F)cc3)cc2C1=O
  23	11
C[C@@H]1CCCCO[C@H](CN(C)Cc2ccc(Cl)c(Cl)c2)[C@@H](C)CN([C@H](C)CO)C(=O)c2cc(N(C)C)ccc2O1
  ?	.
COc1ccc(S(=O)(=O)Nc2ccc3c(c2)C(=O)N([C@@H](C)CO)C[C@@H](C)[C@@H](CN(C)Cc2ccc(C(=O)Nc4ccccc4N)cc2)O3)cc1
  -5	-10
C[C@H]1CN([C@@H](C)CO)C(=O)Cc2cc(NS(=O)(=O)c3ccc(F)cc3)ccc2O[C@@H]1CN(C)Cc1ccncc1
  15	8
C[C@@H]1CN([C@@H](C)CO)C(=O)c2cccc(NS(=O)(=O)c3ccc(Cl)cc3)c2O[C@H]1CN(C)C(=O)Nc1ccc(F)cc1
  9	14
C[C@@H]1CN([C@@H](C)CO)C(=O)c2cc(N(C)C)ccc2O[C@H]1CN(C)Cc1ccncc1
  18	13
CCC(=O)N1CC2(C1)[C@H](c1ccc(-c3cccc(OC)c3)cc1)[C@H](CO)N2C(C)=O
  4	2
COCCCNC(=O)[C@@]1(Cc2ccccc2CN=[N+]=[N-])N=C(c2ccc(OCCCO)cc2)O[C@H]1c1ccccc1
  ?	.
CCN1[C@@H]2c3ccc(C4=CCCCC4)c(=O)n3C[C@@H]2[C@@H](CO)[C@@H]1C(=O)OC
  2	-3
CCCC#Cc1ccc2c(c1)O[C@H](CN(C)Cc1ccc3c(c1)OCO3)[C@H](C)CN([C@@H](C)CO)S2(=O)=O
  -25	-21
COCC(=O)Nc1ccc2c(c1)C(=O)N(C)C[C@H](OC)[C@@H](C)CN(Cc1cncnc1)[C@@H](C)CO2
  11	10
CN(C)CC(=O)Nc1ccc2c(c1)[C@@H]1C[C@H](CC(=O)NCCc3ccccc3)O[C@@H](CO)[C@@H]1O2
  2	-3
C[C@@H]1CCCCO[C@H](CN(C)C(=O)Cc2ccccc2)[C@@H](C)CN([C@H](C)CO)C(=O)c2cc(NC(=O)Nc3ccccc3)ccc2O1
  23	8
Cc1noc(C)c1NC(=O)Nc1ccc2c(c1)C(=O)N([C@H](C)CO)C[C@@H](C)[C@H](CN(C)S(=O)(=O)c1ccccc1)OCCCC[C@H](C)O2
  26	7
CO[C@H]1CN(C)C(=O)c2cc(NC(=O)c3ccccc3F)ccc2OC[C@@H](C)N(C(C)=O)C[C@@H]1C
  5	2
O=C(NCC[C@@H]1CC[C@@H](NS(=O)(=O)c2cccc(F)c2)[C@@H](CO)O1)C1CCCC1
  -9	2
C[C@@H](NC(=O)C[C@@H]1CC[C@@H](NC(=O)Cc2ccccn2)[C@@H](CO)O1)c1ccccc1
  21	25
CC(C)NC(=O)Nc1cccc2c1O[C@@H](CN(C)Cc1ccc(C(=O)Nc3ccccc3N)cc1)[C@@H](C)CN([C@H](C)CO)C2=O
  1	-1
COc1ccc(S(=O)(=O)N(C)C[C@@H]2OCCCC[C@H](C)Oc3ccc(NS(=O)(=O)c4ccccc4)cc3C(=O)N([C@H](C)CO)C[C@H]2C)cc1
  ?	.
C[C@H](CO)N1C[C@H](C)[C@@H](CN(C)C(=O)C2CC2)Oc2cc(C#Cc3ccccc3)ccc2S1(=O)=O
  -13	-23
C[C@H]1CN([C@@H](C)CO)C(=O)Cc2cc(NC(=O)Nc3ccc(F)cc3)ccc2O[C@H]1CN(C)Cc1ccc(Cl)c(Cl)c1
  ?	.
N#Cc1cccc(-c2ccc([C@@H]3[C@H]4CN(Cc5ccccc5F)CCCCN4[C@H]3CO)cc2)c1
  -33	-23
C[C@H]1CN([C@@H](C)CO)C(=O)c2cccc(NS(C)(=O)=O)c2O[C@@H]1CN(C)C(=O)Nc1ccccc1
  16	4
COC(=O)[C@H]1[C@H](CO)[C@H]2Cn3c(ccc(-c4ccc(F)cc4)c3=O)[C@@H]1N2Cc1cccnc1
  -4	2
CN(C)c1ccc2c(c1)[C@H]1C[C@@H](CC(=O)NCc3ccc(Cl)cc3)O[C@@H](CO)[C@H]1O2
  1	2
C[C@H](CO)N1C[C@H](C)[C@@H](CN(C)C(=O)Nc2ccccc2)OCCCC[C@H](C)Oc2ccc(NC(=O)CCC(F)(F)F)cc2C1=O
  -2	-4
CCCC#Cc1ccc2c(c1)O[C@H](CN(C)C(=O)NCCC)[C@H](C)CN([C@H](C)CO)S2(=O)=O
  13	1
C[C@H](CO)N1C[C@H](C)[C@H](CN(C)S(=O)(=O)c2cn(C)cn2)Oc2ccc(NS(=O)(=O)c3ccc(F)cc3)cc2CC1=O
  3	0
C[C@H](CO)N1C[C@H](C)[C@@H](CN(C)C(=O)Nc2ccccc2)Oc2ccc(NS(C)(=O)=O)cc2CC1=O
  14	1
CN(C)CCCNC(=O)C[C@H]1CC[C@@H]2[C@@H](COc3ccc(NS(C)(=O)=O)cc3C(=O)N2C)O1
  5	6
COc1ccccc1CNC(=O)C[C@@H]1C[C@H]2c3cc(NC(=O)c4ccc5c(c4)OCO5)ccc3O[C@H]2[C@@H](CO)O1
  11	10
C[C@@H]1CN([C@H](C)CO)C(=O)c2cc(NS(=O)(=O)c3ccccc3)ccc2O[C@@H](C)CCCCO[C@H]1CN(C)C(=O)Nc1ccc(F)cc1
  -34	-23
C/C=C/c1ccc2c(c1)O[C@@H](CN(C)C(=O)c1ccncc1)[C@@H](C)CN([C@H](C)CO)S2(=O)=O
  2	3
O=C(C[C@@H]1CC[C@H]2[C@@H](COC[C@H](O)CN2C(=O)C2CCOCC2)O1)NCc1ccncc1
  14	16

Next part:
Every second line gives: Vaccinia stage	Vaccinia stage Venus
C[C@@H]1CN([C@@H](C)CO)C(=O)Cc2cc(NS(=O)(=O)c3ccc(F)cc3)ccc2O[C@H]1CN(C)CC1CCCCC1
  ?	.
C[C@H]1CN([C@@H](C)CO)C(=O)c2cc(NC(=O)C3CC3)ccc2O[C@@H]1CN(C)CC1CCCCC1
  -4	-7
COc1ccccc1CNC(=O)C[C@@H]1C=C[C@@H](NC(=O)CC2CC2)[C@H](CO)O1
  3	16
O=C(C[C@@H]1C=C[C@H](NC(=O)Nc2ccc(C(F)(F)F)cc2)[C@@H](CO)O1)NCc1cccc(F)c1
  -10	-10
CCNC(=O)C[C@@H]1CC[C@@H]2[C@H](COC[C@@H](O)CN2C(=O)Nc2c(C)noc2C)O1
  10	3
COc1ccc(NC(=O)N2CC(=O)N3[C@@H](CO)[C@@H](c4ccc(C5=CCCC5)cc4)[C@@H]3C2)cc1
  -2	-10
CC(=O)N(C)C[C@H]1Oc2ncc(C#Cc3cccnc3)cc2C(=O)N([C@H](C)CO)C[C@@H]1C
  22	11
COc1ccc2c3c(n(C)c2c1)[C@@H](CO)N(C(=O)Nc1cccc(F)c1)CC31CCN(Cc2nccs2)CC1
  ?	.
Cc1noc(C)c1NC(=O)NC[C@@H]1CC[C@@H]2[C@@H](CN2Cc2cccc(-c3ccccn3)c2)O1
  10	10
C[C@H]1CN([C@@H](C)CO)C(=O)c2cc(NS(=O)(=O)c3cn(C)cn3)ccc2O[C@@H]1CN(C)C
  15	3
C[C@@H]1CN([C@H](C)CO)S(=O)(=O)c2ccc(C#Cc3ccncc3)cc2O[C@H]1CN(C)C(=O)C1CCC1
  ?	.
C[C@H]1CN([C@@H](C)CO)C(=O)c2cccc(NC(=O)C3CC3)c2O[C@@H]1CN(C)Cc1ccc(C(=O)Nc2ccccc2N)cc1
  -9	-2
CCC(=O)Nc1ccc2c(c1)C(=O)N(C)C[C@H](OC)[C@H](C)CN(CCC(F)(F)F)[C@@H](C)CO2
  16	1
CO[C@@H]1CN(C)C(=O)c2cc(NS(=O)(=O)c3cn(C)cn3)ccc2OC[C@@H](C)N(CC2CC2)C[C@@H]1C
  0	-1
O=C(Nc1ccccc1F)N[C@@H]1C=C[C@@H](CC(=O)N2CCCCC2)O[C@H]1CO
  -4	8
C[C@@H]1CN([C@H](C)CO)C(=O)c2cc(C#CCN(C)C)cnc2O[C@@H]1CN(C)C(=O)NC1CCCCC1
  16	7
CCCC#Cc1ccc([C@@H]2[C@H](CO)N3CCCCN(S(=O)(=O)c4ccccc4F)C[C@@H]23)cc1
  ?	.
C[C@@H]1CN([C@H](C)CO)C(=O)Cc2cc(NC(=O)NC3CCCCC3)ccc2O[C@@H]1CN(C)Cc1ccc(-c2ccccc2)cc1
  ?	.
C[C@@H]1CN([C@@H](C)CO)C(=O)c2cccc(NS(C)(=O)=O)c2O[C@@H]1CN(C)C(=O)Nc1ccc(C(F)(F)F)cc1
  -8	-5
O=C(C[C@@H]1CC[C@@H]2[C@H](COC[C@H](O)CN2Cc2nccs2)O1)NCc1ccc(Cl)cc1
  -5	-5
O=C(C[C@@H]1CC[C@@H]2[C@H](COC[C@@H](O)CN2S(=O)(=O)c2ccc(Cl)cc2)O1)N[C@H]1CCN(Cc2ccccc2)C1
  -13	-2
C[C@@H]1CN([C@H](C)CO)C(=O)c2cc(C#CC(C)(C)O)cnc2O[C@@H]1CN(C)Cc1ccccn1
  11	30
O=C(C[C@H]1CC[C@@H](NC(=O)Nc2cc(F)ccc2F)[C@@H](CO)O1)NCCCN1CCOCC1
  8	3
CO[C@@H](CN(C)S(=O)(=O)c1ccc(F)cc1)[C@H](C)CN(C(=O)Nc1ccccc1F)[C@H](C)CO
  6	6
Cc1ccc(S(=O)(=O)N[C@@H]2C=C[C@H](CC(=O)NC3CCCCC3)O[C@H]2CO)cc1
  14	6

Grouped by structure: the compounds so far containing an aryl methoxy group (9)
Every second line gives: Vaccinia stage	Vaccinia stage Venus
COc1cccc(-c2cn(CC[C@H]3CC[C@@H](NC(=O)CN(C)C)[C@H](CO)O3)nn2)c1
  6	9
COc1ccccc1S(=O)(=O)N[C@H]1CC[C@H](CC(=O)N2CCCCC2)O[C@@H]1CO
  0	10
COc1ccc(S(=O)(=O)Nc2ccc3c(c2)C(=O)N([C@@H](C)CO)C[C@@H](C)[C@@H](CN(C)Cc2ccc(C(=O)Nc4ccccc4N)cc2)O3)cc1
  -5	-10
CCC(=O)N1CC2(C1)[C@H](c1ccc(-c3cccc(OC)c3)cc1)[C@H](CO)N2C(C)=O
  4	2
COc1ccc(S(=O)(=O)N(C)C[C@@H]2OCCCC[C@H](C)Oc3ccc(NS(=O)(=O)c4ccccc4)cc3C(=O)N([C@H](C)CO)C[C@H]2C)cc1
  ?	.
COc1ccccc1CNC(=O)C[C@@H]1C[C@H]2c3cc(NC(=O)c4ccc5c(c4)OCO5)ccc3O[C@H]2[C@@H](CO)O1
  11	10
COc1ccccc1CNC(=O)C[C@@H]1C=C[C@@H](NC(=O)CC2CC2)[C@H](CO)O1
  3	16
COc1ccc(NC(=O)N2CC(=O)N3[C@@H](CO)[C@@H](c4ccc(C5=CCCC5)cc4)[C@@H]3C2)cc1
  -2	-10
COc1ccc2c3c(n(C)c2c1)[C@@H](CO)N(C(=O)Nc1cccc(F)c1)CC31CCN(Cc2nccs2)CC1
  ?	.
